Screening results: PubChem BioAssay, several laboratories
B2AR ag: beta2AR agonists driving receptor internalization, primary screen, cell-based, FAP fluorogen, flow cytometry; response, % (no concentration beside the values); Beta-2 adrenergic receptor (Homo sapiens), P07550; actives 0.43% (n = 340,000); Am2.2-beta2AR cells; reference of the scale not given here;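 active = response above a set limit, near 3 SD of response in nonfluorescent compounds, cut at about 42% in these data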;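 also: stock transfer was 100 nL into about 11 µL; a reference agonist was the positive control; negative values mostly stem from fluorescent compounds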
Bfl-1 A1 inh: caspase 3/7 activation in MEF A1-2A-BIM cells, primary screen, A1 inhibitor project, cell-based, luminescence, HTS. AID 2462, 2010. actives 0.066% (n = 330,000). caspase activation, % (test concentration not listed). Caspase-Glo 3/7 luminescence, 3 h; percent of clofoctol response, vehicle zero;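 active = over half of replicate activation scores above 10%, or exactly half above 10 with the replicate mean above 10; inconclusive = replicate mean below 10 yet half the replicates above 10; inactive = over half of replicates below 10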;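 also: wells of about 30 µL received 50 nL stock; many hits fall short of the cut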
LANA-H2A inh: blockers of LANA interaction with H2A/H2B – biochemical, FP readout, HTS, primary screen | actives 0.6% (n = 320,000) | AID 2629, 2010 | Protein LANA1 (Human herpesvirus 8 type P (isolate GK18)), Q9QR71 | inhibition, % (test concentration not listed) | cell-free LANA-H2A/H2B peptide, fluorescence polarization; in the data active = inhibition mostly above about 10%, no sharp cut-off; inactive = mostly below about 6.7%;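 also: stock transfer was 7.5 nL into about 10 µL; 0% = median of vehicle wells and 100% = median of positive control wells; one replicate is shown; the record names a cut of 25% in any replicate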
Target sequence (Q9QR71 whole entry, looked up): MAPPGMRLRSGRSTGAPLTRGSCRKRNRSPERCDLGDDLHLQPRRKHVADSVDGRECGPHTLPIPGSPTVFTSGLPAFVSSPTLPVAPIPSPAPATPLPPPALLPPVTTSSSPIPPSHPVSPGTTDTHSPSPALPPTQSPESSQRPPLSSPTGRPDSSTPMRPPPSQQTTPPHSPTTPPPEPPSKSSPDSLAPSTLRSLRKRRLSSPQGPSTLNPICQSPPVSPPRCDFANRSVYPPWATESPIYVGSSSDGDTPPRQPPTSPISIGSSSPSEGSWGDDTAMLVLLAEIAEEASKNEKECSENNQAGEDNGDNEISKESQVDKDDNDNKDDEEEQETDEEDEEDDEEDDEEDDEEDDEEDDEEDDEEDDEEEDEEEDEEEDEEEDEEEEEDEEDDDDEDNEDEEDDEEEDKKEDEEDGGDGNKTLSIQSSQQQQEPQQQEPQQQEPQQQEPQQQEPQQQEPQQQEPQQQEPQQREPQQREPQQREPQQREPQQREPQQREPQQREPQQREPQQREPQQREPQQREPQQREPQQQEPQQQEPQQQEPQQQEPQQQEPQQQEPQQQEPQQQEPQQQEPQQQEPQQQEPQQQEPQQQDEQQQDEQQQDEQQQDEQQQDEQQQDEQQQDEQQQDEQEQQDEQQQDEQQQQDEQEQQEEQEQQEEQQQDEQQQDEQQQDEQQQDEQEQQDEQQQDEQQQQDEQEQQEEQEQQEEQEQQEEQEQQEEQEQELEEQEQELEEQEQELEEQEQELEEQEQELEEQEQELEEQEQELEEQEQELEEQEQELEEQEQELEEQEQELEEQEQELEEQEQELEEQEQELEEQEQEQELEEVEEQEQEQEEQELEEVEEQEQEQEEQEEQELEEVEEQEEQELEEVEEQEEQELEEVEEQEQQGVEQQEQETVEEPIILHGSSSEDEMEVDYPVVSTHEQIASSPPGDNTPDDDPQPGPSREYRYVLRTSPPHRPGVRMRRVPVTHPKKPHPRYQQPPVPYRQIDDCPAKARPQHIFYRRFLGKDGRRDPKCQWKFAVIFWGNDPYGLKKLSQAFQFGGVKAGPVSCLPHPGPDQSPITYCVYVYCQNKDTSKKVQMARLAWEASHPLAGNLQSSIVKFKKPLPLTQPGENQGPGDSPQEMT
Calb FLC: C. albicans growth inhibition with fluconazole, primary screen, CaCi-2 strain, Alamar Blue fluorescence. C. albicans CaCi-2 (fluconazole-resistant clinical isolate) + fluconazole, 48 h. actives 0.57% (n = 300,000). growth inhibition, % (test concentration not listed). AID 1979, 2009;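 active = most replicates above 75%; inconclusive = exactly half above 75%; inactive = most below 75%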;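 also: all wells also contain fluconazole at 8 µg/ml as a sub-toxic cotreatment; 0% = median of DMSO wells and 100% = median of geldanamycin control wells; wells of about 8 µL received 7.5 nL stock; the first replicate is given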
T cruzi repl: inhibitors of intracellular T. cruzi growth, primary screen, luminescence, NIH3T3 host cells; T. cruzi beta-gal in NIH3T3, 90 h; inhibition, % (no concentration beside the values); actives 1.4% (n = 300,000);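 active = mean inhibition across valid replicates above about 55%, limit read from the data; inconclusive = mean below that limit but half or more replicates reach it; inactive = mean below it, under half of replicates reach it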;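 also: signal also drops with host cell toxicity which is not excluded here; 0% = plate median of DMSO wells and 100% = zero luminescence signal; higher percent means less beta-gal luminescence so fewer parasites; stock transfer was 50 nL into about 50 µL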
UCH37 DUB inh: inhibitors of human UCH37 deubiquitinase, primary screen, biochemical, Ub-AMC cleavage, fluorescence | Ubiquitin carboxyl-terminal hydrolase isozyme L5 (Homo sapiens), Q9Y5K5 | purified proteasome/UCH37 | inhibition, % (test concentration not listed) | actives 0.33% (n = 330,000) | AID 588478, 2011;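 active = mean of two replicates above 20%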;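 also: 0% = compound-free wells with enzyme and 100% = wells lacking proteasome; stock transfer was 100 nL into about 20 µL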
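Assay system: Proteasome-bound UCH37. Buffer or medium: pH 7.4 Tris-HCl (50 mM) with ovalbumin, ATP-MgCl2, DTT. Incubation: 30 min preincubation with enzyme, 25 min cleavage at room temperature. Measured by: fluorescence, ex 355 nm, em 460 nm. Read-out basis: percent inhibition. Control set: wells without proteasome as full block, compound-free enzyme plus substrate as uninhibited.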
Beta apoptosis: inhibitors of cytokine-induced beta cell apoptosis, primary screen, luminescence. INS-1E cytokine-induced death, ATP luminescence, 48 h; percent of positive-control rescue, neutral wells zero. actives 0.8% (n = 300,000). AID 435005, 2010. protection from apoptosis, % (concentration not given with the values);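 active = all replicates at 75% or more, or half of them and the mean; inconclusive = half reach 75% but not the mean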;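 also: 0% = cytokine-treated negative control wells and 100% = positive control rescue; higher means more ATP so stronger rescue from cytokine killing; wells of about 40 µL received 100 nL stock; the first replicate is given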
RanGTP-Impb inh: inhibitors of RanGTP-importin-beta interaction, primary screen, biochemical, FRET, CFP-Ran, YFP-importin-beta, homogeneous | AID 2216, 2009 | inhibition, % (no concentration beside the values) | cell-free CFP-Ran/YFP-importin-beta FRET ratio | Ran GTPase (GTP-bound) - importin-beta complex | actives 1.1% (n = 300,000);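 active = most replicates above 15%; inconclusive = exactly half above 15%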;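 also: 0% = DMSO wells and 100% = Ran loaded with GDP instead of GTP; wells of about 40 µL received 100 nL stock; the first replicate is given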
Starred values were filed as active, the others as inactive; i = inactive; ? = inconclusive; / = no result given.

SMILES	B2AR ag	Bfl-1 A1 inh	LANA-H2A inh	Calb FLC	T cruzi repl	UCH37 DUB inh	Beta apoptosis	RanGTP-Impb inh
COc1ccc(-c2cc(=O)oc3c(O)c(O)ccc23)cc1	3.3	-1.0	2.8	30.3	-13.5	4.2	0.2	-5.2
O=C1NC(c2ccncc2)Nc2ccccc21 (stereo not given)	-5.9	0.6	-6.3	2.7	-22.3	-24.0	/	0.8
COc1cccc2sc(N(CCN(C)C)C(=O)c3ccc4c(c3)CCCC4)nc12	3.5	-0.4	-5.1	-6.5	4.2	5.1	4.8	1.1
Nc1cc(=O)[nH]c(SCCSc2ccccc2)n1	-3.0	-0.2	-0.4	7.9	3.3	-0.5	-2.9	-2.0
COc1ccc(CNCc2cccc(C)c2)cc1	-4.6	0.2	2.1	-2.8	18.0	-0.8	-4.3	-1.1
CCC(c1nnnn1CS(=O)(=O)c1ccc(C)cc1)N1CCC(C(N)=O)CC1 (stereo not given)	8.8	0.3	-2.5	-17.5	5.5	2.6	-1.1	1.0
Cc1cc(C(=O)NC(C)CCC(C)C)c2ccccc2n1 (stereo not given)	-1.7	-0.4	0.1	?	8.2	6.6	0.2	4.2
Cc1ccc(C(=O)CCC(=O)Nc2ccc(C)cn2)cc1	-2.5	-1.2	4.4	/	/	/	-5.0	/
COc1cc(O)c(C(CC(=O)N2CCCC(C)C2)c2ccc(N(C)C)cc2)c(OC)c1 (stereo not given)	3.9	0.9	0.1	0.0	16.1	-0.3	-12.4	?
CCc1c(C)sc(NC(=S)N2CCN(C(=O)C3CCCO3)CC2)c1C(=O)OC (stereo not given)	-3.6	1.7	1.7	7.1	-3.9	3.0	-1.1	-5.4
Cc1c(C#N)c(NC(=O)CCl)n(Cc2ccccc2)c1C	-0.6	-0.1	1.5	96.8*	?	2.5	3.3	23.1*
O=S(=O)(c1ccccc1)c1cnc(-c2ccccc2)nc1N1CCCC1	3.7	0.3	-0.3	0.7	21.1	-1.6	11.4	2.0
CSc1nnc(SCC(=O)NC(=O)c2ccccc2)s1	-4.1	-0.8	0.0	-10.2	-5.2	2.8	-9.0	-2.2
CCn1c(SCC(=O)OC2CCCCC2)nnc1-c1ccncc1	2.2	0.0	-0.4	-31.9	6.3	-2.7	/	-0.4
Cc1nn(-c2ccccc2)c2c1cc1c(=O)n(C)c(=O)nc-1n2-c1ccccc1F	0.7	-0.5	-2.0	10.6	5.2	i	-1.8	?
O=C(/C=C/c1ccc2c(c1)OCO2)Nc1nc(-c2ccc(F)cc2F)cs1	/	-0.3	-4.7	-8.5	-12.5	/	41.8	-1.0
COC(=O)c1sc2nc3c(cc2c1N)C(=O)CC(C)(C)C3	-9.2	0.1	1.6	4.4	-4.9	1.4	/	?
COc1ccc(S(=O)(=O)N2CCCCC2)cc1NC(=O)c1ccc2ccccc2n1	-4.9	0.6	-1.7	-7.8	-5.2	-1.6	0.8	-0.3
COc1ccc(NC(=O)c2c(-c3c(Cl)cccc3Cl)noc2C)cn1	0.4	-0.5	-5.8	3.3	-2.8	0.5	-2.6	-0.7
Cc1nc2ccccn2c1C(=O)NN=C1CCCC1	-1.4	1.6	0.4	-16.0	-9.4	3.0	3.7	4.4
O=C1/C(=C/c2ccc3c(c2)OCO3)Oc2cc(OCC(=O)N3CC(O)C[C@H]3C(=O)O)ccc21 (stereo not given in full)	-1.9	0.0	-7.5	-0.3	-24.0	8.4	-4.3	-38.3
CC(=NNC(=O)c1cccs1)c1ccc2c(c1)OCCO2	-4.8	-2.7	-0.5	/	/	-10.1	-0.9	/
Nc1nnc(SCC(=O)Nc2cccc(S(N)(=O)=O)c2)s1	7.1	0.1	0.1	10.3	-5.6	0.1	1.9	-1.2
COc1ccc(CCNS(=O)(=O)c2ccc(S(=O)(=O)N3CCCC3)cc2)cc1OC	9.2	0.9	1.7	-4.6	9.0	4.9	-0.1	?
O=C(NCCc1ccc(Cl)cc1)c1n[nH]c2ccccc12	4.9	-2.3	-2.0	20.8	/	3.6	-4.8	-1.4
CC(NC(=O)c1ccc([N+](=O)[O-])cc1[N+](=O)[O-])c1ccc(-c2ccccc2)cc1 (stereo not given)	3.8	-1.0	2.6	-1.3	44.6	5.8	-0.1	7.4
CC1=CC(C)(C)Nc2ccc(OS(=O)(=O)c3ccc(C)cc3)cc21	-3.1	0.3	-1.3	40.4	52.8	-2.3	3.4	-4.1
O=C(OCc1c(-c2ccccc2)ncc2ccccc12)c1ccc(F)cc1	-2.8	0.0	3.6	/	/	-0.7	4.7	/
O=C(NCCN1CCOCC1)c1cc(-c2ccc(Cl)c(Cl)c2)on1	-17.3	0.7	-1.2	17.1	13.9	0.7	-5.0	1.3
CCn1ncc(CN2CCC(C(=O)Nc3cccc(-c4cccc(F)c4)c3)CC2)c1C	-4.7	/	/	2.3	28.3	3.5	/	3.2
S=c1[nH]nc(-c2ccncc2)n1Cc1ccco1	-5.4	0.0	2.4	-11.4	-2.4	3.5	-1.8	-2.4
O=C(Nc1ccnn1C1CCN(C2CCC2)CC1)c1ccccc1Cl	5.6	0.0	-1.5	-2.3	-3.0	/	2.8	-2.3
COC(=O)c1cccc([N+](=O)[O-])c1CS(=O)(=O)c1ccc(C)cc1	-1.1	-0.6	-2.1	1.8	3.8	2.8	-7.0	3.5
CCn1c(SCc2ccccc2)nnc1-c1ccc(S(=O)(=O)N2CCCCC2)cc1	11.0	0.0	0.3	1.5	30.7	0.6	14.3	4.0
CC(=O)N1N=C(N)SC12CCCC2	-0.4	-0.5	-5.5	-52.6	-11.3	0.8	5.8	3.6
O=C(Cn1cccc1C(=O)c1ccccc1)NCCN1CCCCCC1	-6.4	0.9	0.4	0.3	10.1	-1.9	-4.5	0.3
CN(C)/C=C(\C=N\OCc1ccc(Cl)cc1Cl)C(=O)Nc1ccc(Cl)c(Cl)c1	2.2	-1.2	-2.0	-23.6	-5.2	/	-0.6	0.3
Nc1nc2cc(S(=O)(=O)NC3=NCCCCC3)ccc2s1	-1.1	-0.3	7.4	?	-34.6	1.7	2.4	-0.3
O=C(NCCO)/C(=C/c1ccc(Br)cc1)NC(=O)c1cccs1	-1.2	1.9	-1.0	-7.3	-13.4	1.7	-4.1	6.7
COc1ccc(-n2nc([N+](=O)[O-])c(=NC3CCN(Cc4ccccc4)CC3)n2O)cc1	-3.0	-0.4	-6.0	26.5	50.9	7.4	17.9	1.4
Cc1ccc2nc(N/N=C\c3ccc([N+](=O)[O-])o3)nc(-c3ccccc3)c2c1	-3.3	2.6	-3.3	-2.0	79.9*	/	/	-22.5
C[n+]1ccc(/C=C/c2ccccc2O)c2ccccc21	-10.6	0.2	1.4	10.5	69.7*	7.1	3.8	-3.5
CC1CN(C2=NC(=O)/C(=C/c3ccncc3)S2)CC(C)O1 (stereo not given)	0.9	-0.1	2.4	-9.1	8.7	4.8	-2.1	-2.0
CCOC(=O)c1c(N)nn(C(C)=O)c1-c1ccccc1	6.9	0.4	0.3	4.3	-18.0	4.3	/	0.7
COc1ccc(NC(=O)CN(C)C(=O)CCC(=O)c2ccc(C)cc2)cc1	8.8	-0.1	3.0	-1.2	-1.4	2.2	2.0	0.3
COc1ccc(C2CN=NC23CCc2ccccc2C3=O)cc1 (stereo not given)	2.6	1.0	-1.6	6.1	-8.4	6.2	13.5	-0.9
COc1ccccc1C(=O)NC1CCN(C(=O)Nc2ccc(F)cc2)CC1	2.2	0.5	-2.3	-0.8	-13.1	1.1	-2.6	6.8
CCOC(=O)CN1C(=O)SC(Nc2ccc(C)cc2)C1=O (stereo not given)	5.9	0.2	0.9	-5.8	-25.5	2.6	-6.7	2.8
CCOC(=O)C(=Cc1ccccc1OC)C(=O)OCC	5.3	0.6	-17.3	?	-28.6	3.6	-29.8	1.0
Brc1ccccc1Cn1cnc2ccccc21	9.3	0.5	2.7	3.5	-6.0	2.0	2.0	-2.1
Other entries
SMILES	B2AR ag	Bfl-1 A1 inh	LANA-H2A inh	Calb FLC	T cruzi repl	UCH37 DUB inh	Beta apoptosis	RanGTP-Impb inh
Cc1cc(SC(C)C(=O)NCC(=O)Nc2ccc(F)c(F)c2F)nc2ccccc12 (stereo not given)	-4.1	-0.2	/	4.1	-15.8	1.0	-5.2	-0.8
O=C1CCCN1CCC1CCN(C2CC(=O)N(Cc3ccc(N4CCCC4=O)cc3)C2=O)CC1 (stereo not given)	1.3	-0.2	-1.1	4.4	-0.1	2.7	3.3	4.0
Cc1ccc(CN=c2c([N+](=O)[O-])nn(-c3cccc(C)c3)n2O)cc1	8.9	-1.7	1.6	-3.6	30.8	2.7	-7.8	-1.2
CCN1CCN(CC#CCOc2ccccc2OC)CC1	-0.5	0.4	-1.2	-2.8	-0.4	1.8	0.8	14.3
COc1ccc(N2CCN(C(C)C(=O)N(C)Cc3ccccc3)CC2)cc1 (stereo not given)	14.0	0.4	4.1	2.4	10.2	2.6	-3.1	4.0
O=S(=O)(c1ccccc1)N1CCN(c2ncnc3scc(-c4ccccc4)c23)CC1	5.7	-0.4	-1.2	11.7	24.4	-1.8	10.5	-2.2
CCOC(=O)Cn1c(=O)oc2cc(S(=O)(=O)Nc3cc(Cl)ccc3OC)ccc21	-2.6	-0.5	-1.2	5.3	-4.5	2.3	-4.8	0.4
COc1ccccc1NC(=O)CC(=O)c1cccc([N+](=O)[O-])c1	3.4	-7.2	0.1	40.0	4.0	4.6	-5.3	0.7
N#Cc1c2c(c[nH]c1=O)CCN2Cc1ccccc1	3.0	-0.9	1.7	-4.0	-9.1	0.6	-5.5	4.9
Cc1c(C(=O)Nc2ccc(F)cc2)cn2c(nc3ccccc32)c1C#N	-18.2	1.0	97.0*	5.2	5.2	-27.9	1.8	4.6
O=C(NCCOc1ccccc1)C1CCC(=O)N(CCN2CCOCC2)C1 (stereo not given)	4.3	-0.3	-0.4	?	4.2	4.9	-5.4	-2.0
COc1ccc(OC)c(NC(=O)COC(=O)c2ccc(S(=O)(=O)N3CCOCC3)cc2)c1	4.4	-0.1	1.5	/	-6.4	-3.6	-7.8	-0.9
COc1ccc(CCC(=O)OCC(=O)Nc2sccc2C#N)cc1	7.5	-0.1	-3.2	/	/	4.0	-3.1	/
CCOC(=O)c1sc(S(C)(=O)=O)c2c1CC(C)(C)C/C2=N/O	1.4	-0.1	1.5	27.2	-5.0	/	10.5	7.5
O=C(NN=Cc1ccc(F)c(F)c1)c1ccc(NS(=O)(=O)c2cccs2)cc1	0.0	0.1	1.3	/	/	6.1	2.7	/
CCOC(=O)c1ccccc1NC(=S)N1CCN(C2CCCCC2)CC1	-11.8	0.2	-2.6	-1.0	8.2	4.4	-5.5	6.0
CCOC(=O)/C(O)=C(\C#N)c1nc2ccccc2[nH]1	7.0	0.7	0.4	0.5	-22.2	4.8	-1.1	4.5

This is a random part of the collection, and some 4.3% of all compounds hit somewhere here.
